PMP22 txn prim: modulates PMP22 transcription in S16 Schwann cells. S16 Pmp22-F2sN Schwann cells (luciferase reporters placed in the Pmp22 gene), FLuc/NLuc coincidence luminescence, 24 h. 43,000 tested, 2% active. Potency, µM (top dose mostly 57.5 µM), for inactives: top-dose activity change, negative = inhibition, usual class: inhibitors; active = clear falling dose curves in both reporters; inconclusive = both reporters move, but less clearly or upward; inactive = either reporter flat; the % is the NLuc reporter signal; also: % is scaled to controls: 0 for no effect and ±100 for the full control effect; some results filed as inactive show a strong effect at the top dose
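S16 Schwann cells carrying FLuc/NLuc coincidence reporter in the Pmp22 3' UTR treated with compound 24 h at 37C; FLuc then NLuc luminescence read sequentially by dual-luciferase reagents.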
HTT prom inh: inhibitors of huntingtin promoter activity | HEK293 HTT promoter firefly luciferase reporter (activity 0% = vehicle and -100% = no light), 24 h | Potency, µM (titrated, usually from 57.5 µM), inactives show at the highest dose activity change, negative = inhibition, hits mostly inhibitors | 48,000 tested, 0.93% active; active = well fitted inhibition curve with a large enough effect; inconclusive = small, poorly fitted or top-dose-only effect; inactive = no such curve, though single readings can be large or run the other way; also: nearly all actives have a fitted effect of over 50% in size
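Firefly luciferase readout (Dual-Glo, 10 min RT) after 24 h, 37 °C compound exposure (final up to 57.5 uM) of HEK293 reporter cells cultured 24 h beforehand; PTC124 at 50 uM final as control inhibitor; activity scaled vehicle 0%, zero RLU -100%.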
Active calls of the source: *; ? = inconclusive; . = no result given; [ ] = another dose, or the depositor's remark. Potency is read from the fitted curve at half-maximal effect. Not a hit list; any-hit rate near 2.4%.

SMILES	PMP22 txn prim	HTT prom inh
CCOC(=O)c1c(NC(=O)c2cc3ccccc3c(=O)o2)sc2c1CCC(C)C2 (stereo not given)	5%	-2%
COc1ccc(CCNC(=O)CCn2c(=O)c3ccccc3n(Cc3ccc(Cl)cc3)c2=O)cc1OC	?	-8%
CC1=C(c2ccc(C)c(C)c2)S(=O)(=O)N=C1N1CCC(C(=O)NCc2ccc(Cl)cc2)CC1	?	?
CC(CC(=O)NCc1ccc(Cl)cc1Cl)CC1=NS(=O)(=O)c2ccccc2N1 (stereo not given)	?	?
CC(C)C1N=C2c3ccccc3N=C(SCC(=O)NCc3ccccc3Cl)N2C1=O (stereo not given)	-16%	-25%
CCC1CCCCN1CCCNC(=O)c1cn(C)c2ccc(S(=O)(=O)N(C)C3CCCCC3)cc2c1=O (stereo not given)	?	-23%[11.5 µM]
Cc1ccc(CNC(=O)CSc2ncc(S(=O)(=O)c3ccc(C)c(Cl)c3)c(=O)[nH]2)cc1	-15%	-17%
COc1ccccc1CNC(=O)Cn1c(=O)oc2cc(S(=O)(=O)N3CCCC3)ccc21	?	-40%
COc1cc(-c2nc3ccc(Cl)cn3c2Nc2ccc3c(c2)OCCO3)ccc1O	?	18%
CCN(CC)CCNC(=O)c1c(C)[nH]c(/C=C2\C(=O)Nc3ccc(F)cc32)c1C	.	?
Cc1cccc(-c2c3c(=O)n(C)c(=O)n(C)c3cn2-c2cc(N)c(Cl)cc2Cl)c1	?	?
Cc1ccccc1Oc1nc2ccccn2c(=O)c1/C=C(\C#N)c1nc2ccccc2[nH]1	20%	6%
Cc1sc(-c2cc3ccccc3oc2=O)nc1-c1ccc(Cl)c(Cl)c1	-5%	-8%
CC(=O)N1CCCc2cc(S(=O)(=O)Nc3ccc(Cl)cc3F)ccc21	-7%	-28%
COc1ccccc1NC(=O)C1=C(C)Nc2nc(SCC(=O)c3ccc(C)cc3)nn2C1c1ccccc1C (stereo not given)	-41%	5%
O=C(COc1ccccc1F)Nc1ccc(-c2nc3ccccc3s2)cc1	?	28%
CCOc1ccc(NC(=O)c2cc3c(=O)n(Cc4cccs4)ccc3nc2C)cc1	0%	?
O=c1c(N2CCc3ccccc3C2)csc2ccccc12	?	13%
Cc1ccccc1OCCCn1c(CCNC(=O)C2CCCCC2)nc2ccccc21	?	?
CCc1ccc(-n2c(=O)c3c4c(sc3n(Cc3ccc(F)cc3)c2=O)CCCC4)cc1	-14%	13%
CCN(CC)S(=O)(=O)c1ccc2c(c1)N(CC(=O)Nc1cccc(C#N)c1)C(=O)CO2	-11%	-13%
COc1ccc(C2CC(=O)c3c([nH]c(C(=O)OC4CCCCCC4)c3C)C2)cc1OC (stereo not given)	7%	?
CCc1ccc2nc(N3CCN(C(=O)C4CC4)CC3)sc2c1	-10%	2%
Cc1c(Cl)cccc1NC(=O)CSc1cc(-c2ccccc2)ncn1	?	-3%
CCCn1c(CCC(=O)Nc2cc(C(=O)OC)cc(C(=O)OC)c2)nc2cccnc21	6%	-17%

(cont.)
SMILES	PMP22 txn prim	HTT prom inh
O=C(CSc1ncc(-c2ccccc2)[nH]1)Nc1cccc(C(F)(F)F)c1	?	-7%
CCC(C)OC(=O)/C(C#N)=C\c1ccc(-c2cccc(C(F)(F)F)c2)o1 (stereo not given)	-2%	-26%[11.5 µM]
O=C(Nc1ccccc1C(=O)OCc1cc(=O)n2nc(C3CC3)sc2n1)c1ccc(Cl)cc1	7%	5%
CCc1ccc2c(c1)c(=O)c(S(=O)(=O)c1ccc(F)cc1)cn2CC(=O)Nc1ccccc1OC	-8%	?
CCc1cccc(-n2c(C)nc3c(cnn3-c3ccc(Cl)cc3)c2=O)c1	?	?
CCOC(=O)C1=C(CN2CCCCC2)NC(=O)NC1c1cc(C)ccc1C (stereo not given)	6%	-18%
COc1cccc(CN(C(=O)c2ccc(C(C)(C)C)cc2)C2CCS(=O)(=O)C2)c1 (stereo not given)	-2%	-9%
Cc1cc(C)c(S(=O)(=O)N2CCC(N3CCN(Cc4ccc(F)cc4)C(=O)C3=O)CC2)c(C)c1	?	3%
COc1cccc2nc(-c3cccs3)nc(NN3C(=O)C=C(C)C3=O)c12	.	?
CCCCN(CC)CCCNC(=O)c1cc2c(=O)oc3ccc(C)cc3c2s1	?	-5%
O=C(Nc1ccc(Br)cc1F)C1CCN(c2nc3ccccc3[nH]2)CC1	-5%	-3%
COc1ccc(CCNC(=O)c2ccc3c(c2)N(Cc2ccccc2)C(=O)c2ccccc2S3=O)cc1OC (stereo not given)	-5%	14%
COc1ccc(-c2csc(-c3c(N)c(C(=O)c4ccccc4)n4ccccc34)n2)cc1OC	-51%	-9%
COc1ccc(NC(=O)c2cnn(-c3ccc(F)cc3F)c2C2CCN(C(=O)OC(C)(C)C)CC2)cc1Cl	?	?
C[C@@H](c1ncncc1F)[C@](O)(Cn1cncn1)c1ccc(F)cc1F	.	-14%
CCn1cc(C(=O)NCCCN(CC(C)C)CC(C)C)c(=O)c2cc(S(=O)(=O)N(C)C3CCCCC3)ccc21	-30%	-4%
COc1ccc(-c2noc(Cn3c(=O)c4ccccc4n(CC(=O)Nc4cccc(C(F)(F)F)c4)c3=O)n2)cc1	?	?
COc1ccc(C)cc1NC(=O)C1CCN(S(=O)(=O)c2ccc3[nH]c4c(c3c2)CCCCC4)CC1	0%	-27%
COc1cccc(CNC(=O)c2ccc(-c3nc(CSc4ccccc4)c(C)o3)cc2)c1	-32%	-12%
O=C(Nc1cccc(Cl)c1Cl)c1cc(S(=O)(=O)NCCc2ccccc2)ccc1F	8%	-25%
Cn1c(=O)c(=O)n(C)c2cc(S(=O)(=O)CCC(=O)Nc3cccc(C(F)(F)F)c3)ccc21	-23%	-5%
CN(C(=O)CSc1nc2ccc(NC(=O)c3ccc(F)cc3)cc2s1)c1ccccc1	?	?
Cc1cccc(CCNC(=O)CCS(=O)(=O)c2cc3c(cc2Cl)NC(=O)CO3)c1	-5%	-15%
Cc1sc(-c2cc3ccccc3oc2=O)nc1-c1ccc(Cl)cc1	?	4%
CNC1(C)C2CCC(C2)C1(C)C (stereo not given)	.	-7%

At a glance, two of the compounds above.
SMILES	PMP22 txn prim	HTT prom inh
O=C(Nc1cccc(Cl)c1Cl)c1cc(S(=O)(=O)NCCc2ccccc2)ccc1F	8%	-25%
Cn1c(=O)c(=O)n(C)c2cc(S(=O)(=O)CCC(=O)Nc3cccc(C(F)(F)F)c3)ccc21	-23%	-5%

One compound at a time, as listed above. Order of screens: PMP22 txn prim | HTT prom inh
Cc1cc(C)c(S(=O)(=O)N2CCC(N3CCN(Cc4ccc(F)cc4)C(=O)C3=O)CC2)c(C)c1 in the list: ? | 3%
CCCn1c(CCC(=O)Nc2cc(C(=O)OC)cc(C(=O)OC)c2)nc2cccnc21 in the list: 6% | -17%
Cc1ccccc1Oc1nc2ccccn2c(=O)c1/C=C(\C#N)c1nc2ccccc2[nH]1 in the list: 20% | 6%
CCCCN(CC)CCCNC(=O)c1cc2c(=O)oc3ccc(C)cc3c2s1 in the list: ? | -5%
CCc1ccc2c(c1)c(=O)c(S(=O)(=O)c1ccc(F)cc1)cn2CC(=O)Nc1ccccc1OC in the list: -8% | ?

Carrying on:
SMILES	PMP22 txn prim	HTT prom inh
Cc1noc(Cn2c(=O)c3cc4c(cc3n(CC(=O)Nc3ccccc3Br)c2=O)OCO4)n1	6%	-11%
CSc1ccc(Nc2nn(-c3ccc(OC(F)(F)F)cc3)nc2C(C)=O)cc1	-5%	-6%
CCOc1cccc2sc(N3CCN(C(=O)c4ccco4)CC3)nc12	-10%	-19%
COc1ccc(Cl)cc1NC(=O)CSc1cn(CC(=O)N2CCCC2)c2ccccc12	?	?
Cc1nn(-c2ccc3nncn3n2)c(C)c1CCC(=O)Nc1ccc(OC(F)(F)F)cc1	-4%	-13%
Cc1cc(NC(=O)c2ccc(-c3ccc(Br)cc3)o2)cc(-c2nc3ncccc3o2)c1O	-11%	-9%
Cc1ccc(CNC(=O)c2nc(S(=O)(=O)Cc3ccc(C)cc3)ncc2Cl)cc1	10µM*	?
Cc1oc2ncnc(N3CCOCC3)c2c1C(=O)Nc1ccc(Br)cc1F	-31%	-12%
Cc1ccccc1NCc1cccn1-c1nnc(N2CCOCC2)s1	17%	-22%
COc1ccc(N2CCN(C(c3ccccc3)c3nnc(-c4ccccc4Cl)o3)CC2)cc1 (stereo not given)	-11%	?
COc1cccc(-c2cnc(NCc3ccccc3Cl)n2C)c1	?	16%
CCc1ccc(S(=O)(=O)c2nnn(-c3ccc(F)cc3)c2N)cc1	-2%	?
Cc1ccc(S(=O)(=O)C(CNC(=O)C(=O)NCCc2ccc(F)cc2)c2cccs2)cc1 (stereo not given)	-41%	?
COc1ccc(CNC(=O)Cn2c(=O)cc(-c3ccccc3)c3c(C)nn(C)c32)cc1	6%	-29%
COc1ccc2nc(SCC(=O)c3c(C)[nH]c4ccccc34)nc(C)c2c1	1%	-1%
CCOc1ccc(C2CC(c3c(O)n(C4CCCCC4)c(=O)[nH]c3=O)=Nc3ccccc3S2)cc1 (stereo not given)	6%	-52%
Cc1cc(C)cc(NC(=O)Cn2c(=O)n(CCC(C)C)c(=O)c3cccnc32)c1	?	10%
COc1ccc(CCNC(=O)c2nc(SCc3ccc(C)cc3)ncc2Cl)cc1OC	-31%	?
COc1ccc(OC)c(/C=C(\C#N)c2nc3ccccc3c(=O)[nH]2)c1	?	-3%
CCCc1nnc(NC(=O)Nc2ccccc2Cl)s1	16%	48%[activator]
COc1cccc(CSc2nc(-c3ccccc3F)nc3c2Cc2c(CO)cnc(C)c2O3)c1	?	-15%
Cc1ccc2c(C)c(C(=O)N3CCC(c4nc5ccccc5s4)CC3)oc2c1C	13%	23%
CCOc1ccccc1NC(=O)C1=C(C)Nc2ncnn2C1c1ccccn1 (stereo not given)	-18%	-8%
Cc1ccc(CNS(=O)(=O)c2cnc(N)nc2)cc1	8%	-8%
CC(=O)c1cccc(NC(=O)c2sc3nc4c(cc3c2N)CCCC4)c1	-13%	16%

Arranged by length of the SMILES (low to high): part of the list above
SMILES	PMP22 txn prim	HTT prom inh
CCCc1nnc(NC(=O)Nc2ccccc2Cl)s1	16%	48%[activator]
CCOc1ccccc1NC(=O)C1=C(C)Nc2ncnn2C1c1ccccn1 (stereo not given)	-18%	-8%
COc1ccc(OC)c(/C=C(\C#N)c2nc3ccccc3c(=O)[nH]2)c1	?	-3%

(continued)
SMILES	PMP22 txn prim	HTT prom inh
CCOC(=O)c1ccc(NC(=O)N2CCOc3ccccc32)cc1	-23%	55%[activator]
CC(=O)N1c2c(cc(Br)cc2S(=O)(=O)N2CCN(c3ccccc3)CC2)CC1C (stereo not given)	?	?
COc1ccccc1N1CCN(C(=O)c2c(C)oc3ncn(C)c(=O)c23)CC1	-29%	11%
COc1ccc(Cl)cc1NC(=O)CCC(=O)c1ccc(C)cc1	-2%	-19%
CN(C(=O)Nc1cn(C)c(=O)c2ccccc12)c1ccccc1	15%	-16%
CSc1ncc(Cl)c(C(=O)N(Cc2ccccc2Cl)C2CCS(=O)(=O)C2)n1 (stereo not given)	9%	-8%
CCCCc1ccc(C(=O)c2c(N)c(C(=O)Nc3cccc(OC)c3)c3ccccn23)cc1	-23%	-6%
COC(=O)c1ccccc1NC(=O)C1=C(C)C(=O)OC12CCCCCC2	-7%	-6%
COc1ccc(C2C(C(=O)Nc3ccccc3OC)=C(C)Nc3c(C(=O)Nc4ccccc4)cnn32)c(OC)c1 (stereo not given)	?	-4%
CCC(C(=O)Nc1cccc(-c2nc3cccnc3s2)c1C)c1ccccc1 (stereo not given)	-38%	-20%

In the list so far, these contain a thiophene ring, fused or not.
SMILES	PMP22 txn prim	HTT prom inh
CCOC(=O)c1c(NC(=O)c2cc3ccccc3c(=O)o2)sc2c1CCC(C)C2 (stereo not given)	5%	-2%
CCOc1ccc(NC(=O)c2cc3c(=O)n(Cc4cccs4)ccc3nc2C)cc1	0%	?
CCc1ccc(-n2c(=O)c3c4c(sc3n(Cc3ccc(F)cc3)c2=O)CCCC4)cc1	-14%	13%
COc1cccc2nc(-c3cccs3)nc(NN3C(=O)C=C(C)C3=O)c12	.	?
CCCCN(CC)CCCNC(=O)c1cc2c(=O)oc3ccc(C)cc3c2s1	?	-5%
Cc1ccc(S(=O)(=O)C(CNC(=O)C(=O)NCCc2ccc(F)cc2)c2cccs2)cc1 (stereo not given)	-41%	?
CC(=O)c1cccc(NC(=O)c2sc3nc4c(cc3c2N)CCCC4)c1	-13%	16%

High-throughput results deposited in PubChem BioAssay by National Center for Advancing Translational Sciences (NCATS).
